From PubChem
RecA splice inh – Mtb RecA intein splicing inhibitors, primary screen, biochemical, fluorescence, HTS; Protein RecA (Mycobacterium tuberculosis (strain ATCC 25618 / H37Rv)), P9WHJ3; cell-free RecA intein splicing; inhibition, %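 (about 9 µM by stock and volumes)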; 290,000 tested, 0.75% active; AID 2221, 2009; in the data active means inhibition above about 30%; inconclusive means no clear call, values can overlap the other calls;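 further: 0% = vehicle wells and 100% = reference inhibitor control wells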
Target sequence (P9WHJ3 whole entry, looked up, canonical isoform): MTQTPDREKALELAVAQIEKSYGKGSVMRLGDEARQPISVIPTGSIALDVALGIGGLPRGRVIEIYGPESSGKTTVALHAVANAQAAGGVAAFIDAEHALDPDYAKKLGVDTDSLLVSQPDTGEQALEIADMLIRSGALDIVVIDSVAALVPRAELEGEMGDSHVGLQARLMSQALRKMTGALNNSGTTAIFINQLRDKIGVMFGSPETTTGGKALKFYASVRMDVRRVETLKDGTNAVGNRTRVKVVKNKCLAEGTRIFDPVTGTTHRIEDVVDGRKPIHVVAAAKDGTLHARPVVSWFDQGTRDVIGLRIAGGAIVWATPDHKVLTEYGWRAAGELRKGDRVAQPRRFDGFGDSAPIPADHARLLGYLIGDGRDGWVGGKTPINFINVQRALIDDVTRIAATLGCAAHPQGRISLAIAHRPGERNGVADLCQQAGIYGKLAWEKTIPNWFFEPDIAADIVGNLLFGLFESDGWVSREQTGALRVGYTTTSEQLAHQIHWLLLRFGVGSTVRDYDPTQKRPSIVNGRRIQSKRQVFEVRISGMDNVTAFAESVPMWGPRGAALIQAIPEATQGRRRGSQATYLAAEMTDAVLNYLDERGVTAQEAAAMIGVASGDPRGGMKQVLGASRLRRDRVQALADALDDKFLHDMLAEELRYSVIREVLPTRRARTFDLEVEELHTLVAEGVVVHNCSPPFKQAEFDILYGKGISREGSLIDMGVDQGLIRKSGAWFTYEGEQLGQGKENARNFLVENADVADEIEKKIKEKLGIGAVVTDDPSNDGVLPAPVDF
Mtb H37Rv – M. tuberculosis H37Rv growth inhibitors, H37Rv strain (AID 1626); 220,000 tested, 0.95% active; inhibition, % at 10 µM; hits with a dose series show IC50 in µM; M. tuberculosis H37Rv growth inhibition; higher % means a stronger effect;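 active means confirmed in a dose series; inconclusive means inhibition above 80% but not taken into the dose series; inactive means below 80% or under 30% at every dose of the series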;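 further: bacteria incubated seven days before Alamar blue readout; 0% = bacteria only wells and 100% = bacteria with antibiotic wells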
YopH PTP inh – YopH tyrosine phosphatase inhibitors, primary screen, biochemical, fluorescence Ex485/Em525. YopH tyrosine phosphatase [Yersinia enterocolitica]. inhibition, %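 (about 10 µM by stock and volumes)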. 140,000 tested, 0.16% active. AID 898, 2007;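 active means inhibition of 50% or more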;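 further: controls were vehicle for no effect and minimum signal wells for full effect; inactives centre near -20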
Mtb betalactam – beta-lactam sensitization of Mtb H37Rv, H37Rv; inhibition, % at 25 µM; 330,000 tested, 0.27% active; AID 434955, 2010; M. tuberculosis H37Rv growth with meropenem, percent inhibition; hits of this screen are not shown here;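 active means about 74% or more and at least 40 points above the plate without the antibiotic, then above 30% in a dose series; inconclusive means first-round hits that could not be retested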;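 further: growth measured after seven days incubation then overnight dye step; 0% = bacteria only wells and 100% = bacteria with antibiotic; twin plates without the antibiotic show which effects depend on it; some results filed as inactive read as strong as hits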
Arbovirus inh – antivirals against arbovirus infection, primary screen, cell-based, full library, 10K replicate subset | arbovirus infection cell-based antiviral screen | 200,000 tested, 0.37% active | AID 1251, 2008 | inhibition, % at 10 µM;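 active means inhibition from about 30%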;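 further: bluetongue infection of BSR cells; cell survival read as ATP light after 72 h; 0% = infected wells without compound and 100% = uninfected wells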
Arbovirus inh repeat – further read-out of Arbovirus inh, marked with its call; inhibition, %; measured here: 10K subset replicate screen; many hits read low in the repeat;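 first of two repeat runs on a subset; 0% = infected and 100% = uninfected wells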
* hit, by the source's call; ? = inconclusive; · = no result given. Not all compounds are listed (hit frequency here may not be typical).

SMILES | RecA splice inh | Mtb H37Rv | YopH PTP inh | Mtb betalactam | Arbovirus inh | others
COc1ccc(-c2csc(N(CC3CCCO3)C(=O)c3cccs3)n2)cc1 (stereo not drawn) | · | 4% | -26 | 4 | -8
Cc1nn(C)c(C)c1S(=O)(=O)N1CCCC(C(=O)NCC2COc3ccccc3O2)C1 (stereo not drawn) | · | -6% | -3 | -7 | 1
Cc1ccc(NS(=O)(=O)c2ccc(OCC(=O)NCc3cccnc3)cc2)cc1 | 4.1 | 16% | 0 | -5 | 3
CCCCOc1cccc(C2/C(=C(/O)c3ccc4c(c3)CC(C)O4)C(=O)C(=O)N2CCN2CCOCC2)c1 (stereo not drawn) | 1.7 | · | · | 2 | ·
O=C(Cn1cnc2ccccc2c1=O)NCC(=O)N1CCC2(CC1)OCCO2 | 0.1 | 2% | 4 | -3 | 4
O=C(NCc1cccs1)C1CCN(S(=O)(=O)c2cccc([N+](=O)[O-])c2)CC1 | 0.9 | · | · | 8 | ·
CCN(C(=O)c1cc2c(=O)[nH]c3ccc(C)cc3c2s1)c1cccc(C)c1 | 2.4 | 0% | · | ? | ·
CCc1cccc(NC(=O)c2ccc(NS(=O)(=O)c3c(C)noc3C)cc2)c1 | 2.4 | -14% | -16 | 32 | 3
CC(=O)Nc1ccc(OCC(=O)N(CC(C)C)C2CCS(=O)(=O)C2)cc1 (stereo not drawn) | 0.9 | -2% | · | 0 | -8
C=CCNC(=O)CCCCCNS(=O)(=O)c1ccc(OC)cc1 | 1.2 | -2% | -38 | 0 | -5
Cc1cc(C)c2c(=O)cc(C(F)(F)F)oc2n1 | 2.2 | 7% | · | -12 | 0
O=C(NC1CC2CCCC(C1)N2C(=O)Nc1cccc(F)c1)C1CC1 (stereo not drawn) | 2.2 | · | · | 7 | ·
CCC1(C)Cc2c(C#N)c(N)n(N)c(=S)c2CO1 (stereo not drawn) | 0.0 | -8% | -8 | -6 | 0
COCCNC(=O)CCC1CCN(Cc2ccc(-c3ccccc3)cc2)CC1 | -0.5 | · | · | -2 | ·
C/C(=N\Nc1nc(C)c(C)s1)c1ccc([N+](=O)[O-])cc1 | 5.4 | ? | · | 98 | -22

A draw from above in order of count of non-hydrogen atoms, lowest first:
SMILES | RecA splice inh | Mtb H37Rv | YopH PTP inh | Mtb betalactam | Arbovirus inh | others
Cc1cc(C)c2c(=O)cc(C(F)(F)F)oc2n1 | 2.2 | 7% | · | -12 | 0
CCC1(C)Cc2c(C#N)c(N)n(N)c(=S)c2CO1 (stereo not drawn) | 0.0 | -8% | -8 | -6 | 0
C/C(=N\Nc1nc(C)c(C)s1)c1ccc([N+](=O)[O-])cc1 | 5.4 | ? | · | 98 | -22
C=CCNC(=O)CCCCCNS(=O)(=O)c1ccc(OC)cc1 | 1.2 | -2% | -38 | 0 | -5
O=C(NC1CC2CCCC(C1)N2C(=O)Nc1cccc(F)c1)C1CC1 (stereo not drawn) | 2.2 | · | · | 7 | ·
CC(=O)Nc1ccc(OCC(=O)N(CC(C)C)C2CCS(=O)(=O)C2)cc1 (stereo not drawn) | 0.9 | -2% | · | 0 | -8
CCN(C(=O)c1cc2c(=O)[nH]c3ccc(C)cc3c2s1)c1cccc(C)c1 | 2.4 | 0% | · | ? | ·
CCc1cccc(NC(=O)c2ccc(NS(=O)(=O)c3c(C)noc3C)cc2)c1 | 2.4 | -14% | -16 | 32 | 3
Cc1ccc(NS(=O)(=O)c2ccc(OCC(=O)NCc3cccnc3)cc2)cc1 | 4.1 | 16% | 0 | -5 | 3
Cc1nn(C)c(C)c1S(=O)(=O)N1CCCC(C(=O)NCC2COc3ccccc3O2)C1 (stereo not drawn) | · | -6% | -3 | -7 | 1
CCCCOc1cccc(C2/C(=C(/O)c3ccc4c(c3)CC(C)O4)C(=O)C(=O)N2CCN2CCOCC2)c1 (stereo not drawn) | 1.7 | · | · | 2 | ·

Carrying on:
SMILES | RecA splice inh | Mtb H37Rv | YopH PTP inh | Mtb betalactam | Arbovirus inh | others
S=C(NCc1ccncc1)Nc1cccc(Cl)c1 | -2.7 | 2% | -23 | -4 | -3
CC(C)(C)OC(=O)N1Cc2ccccc2C[C@H]1C(=O)NCC(=O)NC1CCCC1 | -3.0 | · | · | 4 | ·
COCCCn1c2nc3ccccc3nc2c2c(=O)n(Cc3cccs3)cnc21 | 1.7 | · | -30 | 0 | -3
CSc1ccc(S(=O)(=O)N(CC(=O)NN=C2CCN(C)CC2)c2ccc(C)cc2)cc1 | 0.3 | -10% | · | 0 | -10
O=C(NC1CCCC1)C(c1cccnc1)N(Cc1ccccc1F)C(=O)c1csnn1 (stereo not drawn) | -0.3 | · | · | 2 | ·
O=C(Nc1nc(-c2cc3ccccc3oc2=O)cs1)c1ccc(Br)o1 | 1.4 | -4% | -22 | 0 | 10
C=CCNC(=S)N/N=C/c1ccc(OCc2ccccc2Cl)cc1 | -0.7 | 11% | -1 | -3 | -2
COc1ccc(CSC2=NCCN2)cc1Cl | 4.8 | 3% | -24 | -3 | -1
O=C(c1cccnc1)N1N=C2CCCCCC2C1(O)C(F)(F)F (stereo not drawn) | -0.3 | 1% | · | -5 | 6
Cc1cc(C(=O)N2CCCc3ccccc32)ccc1[N+](=O)[O-] | 1.3 | · | · | 8 | ·
Cc1cccc(NC(=O)c2cnn(C)c2)c1C | -0.1 | -4% | -28 | 4 | 6
CCOc1cc2[nH]c(=S)n(Cc3ccc(C(=O)NCCCN(CC)CC)cc3)c(=O)c2cc1OCC | 5.5 | · | · | -12 | ·
COCCN(C(=O)/C=C/c1cccc([N+](=O)[O-])c1)c1c(N)n(Cc2ccccc2)c(=O)[nH]c1=O | · | -6% | · | -7 | ·
O=C(CSc1cn(Cc2ccccc2)c2ccccc12)Nc1nccs1 | -2.5 | 5% | -46 | 6 | 9 | Arbovirus inh repeat=1
CN(C)c1ccc(C2C3C=CC(C3)C2(C#N)C(=O)O)c(Br)c1 (stereo not drawn) | 0.0 | · | · | 1 | ·
COc1ccc(/C=C(\NC(=O)c2ccccc2)C(=O)NCc2ccco2)cc1 | -3.0 | · | · | 2 | ·
COc1cc(SC#N)ccc1N=Cc1c(C)[nH]n(-c2ccc(Cl)cc2)c1=O | -8.3 | 2% | -28 | 9 | -6
Cc1nn(Cc2cccc(C(=O)N3CCCC(C)C3)c2)c(C)c1[N+](=O)[O-] (stereo not drawn) | 0.6 | 0% | -17 | -1 | 1
CCCc1nnc(NC(=O)CCC(=O)N2CCN(Cc3ccc(F)cc3)CC2)s1 | -0.9 | · | · | -2 | ·
O=C(NCCO)C(=O)Nc1cc2c3c(c1)CCN3C(=O)CC2 | 0.7 | · | · | -3 | ·
CCC(Cc1ccccc1)NS(=O)(=O)c1ccc2c(c1)NC(=O)C(C)S2 (stereo not drawn) | 4.3 | · | · | 14 | ·
COc1ccccc1CNCc1cc(=O)oc2c(C)c(C)ccc12 | -1.8 | · | · | 7 | ·
CCOC(=O)c1sc(NC(=O)C2CC=CCC2C(=O)O)nc1C (stereo not drawn) | -0.8 | -10% | 16 | 2 | -2
CCn1c(C)c(C2=CCN(S(=O)(=O)c3ccccc3)CC2)c2ccccc21 | -6.5 | 2% | -25 | 6 | 8
O=C(NC1CC1)C1CCN(C2CCN(C(=O)/C=C/c3ccc(F)cc3)CC2)CC1 | -1.2 | -1% | · | 0 | 1
Cc1cccc(-c2onc3ccc(C(=O)/C=C/N(C)C)cc23)c1 | 3.9 | · | · | 1 | ·
NC(=S)Cc1nc(-c2ccc(Cl)cc2)cs1 | · | -3% | · | 1 | -22
Cc1nn(-c2ccccc2)c(Cl)c1/C=N/NC(=O)c1ccco1 | -1.9 | -6% | -16 | -11 | -8
O=C(N/N=C/c1cccnc1)c1ccc(NC(=O)c2ccc(F)cc2)cc1 | -1.7 | · | · | 4 | ·
CSc1nc2ncc3c(n2n1)CC1c2ccccc2CCN1C3=O (stereo not drawn) | -14 | 2% | -41 | -11 | 6
COc1ccc(Cl)cc1NC(=O)CNc1ccccc1F | 4.4 | 10% | -28 | 0 | 6
Cc1nnc(SCC(=O)N/N=C/c2cn(-c3ccccc3)nc2-c2ccccc2)n1-c1ccccc1 | 14 | 2% | -8 | 97 | -16
O=C(Nc1ccc(N2CCCC2)c(Cl)c1)c1ccc([N+](=O)[O-])o1 | · | ? | · | · | -26
CCOC(=O)C1CCN(S(=O)(=O)c2ccc(C(=O)OC)cc2)CC1 | -1.6 | -5% | -1 | 6 | 1
O=C(CNC(=S)N(Cc1ccc(F)cc1)C1CCCCC1)NC1CC1 | 0.5 | -1% | -12 | -8 | -6
CC(Sc1nc2ccccc2s1)C(=O)NC1CCCc2ccccc21 (stereo not drawn) | 1.1 | 12% | -15 | 2 | 11
Cc1cc(C)cc(C(=O)N2CC(=O)Nc3ccccc32)c1 | -1.9 | 8% | -13 | -1 | -14
Cc1cccc(C)c1N(C(=O)c1ccco1)C(C(=O)NC1CCCC1)c1ccncc1 (stereo not drawn) | 1.6 | · | · | -6 | ·
Fc1ccc(NC(=S)NCc2ccc3c(c2)OCO3)cc1 | 0.7 | 8% | · | 1 | -2
O=C(O)CN1CCN(CC(=O)O)CCN(CC(=O)O)CCN(CC(=O)O)CC1 | -4.2 | · | · | 6 | ·
COc1ccc(N2CCN(C(CNC(=O)CC(C)(C)C)c3ccc4c(c3)OCO4)CC2)cc1 (stereo not drawn) | -5.6 | · | · | -3 | ·
CCN(CC)c1ccc(NC(=O)Nc2ccccc2C(F)(F)F)cc1 | -2.1 | -12% | -26 | -1 | 0
COC(=O)c1c(-c2ccco2)csc1NC(=O)C1CC=CCC1C(=O)O (stereo not drawn) | 0.2 | -6% | -30 | -11 | 1
COC(=O)CNC(=O)c1ccccc1 | -0.5 | -11% | · | -7 | ·
COc1ccc(Br)cc1S(=O)(=O)NCCN1CCOCC1 | 0.5 | 4% | · | -1 | 2
Cc1ccc2nc(SCC(=O)Nc3cc(C)on3)c(C)cc2c1 | 3.8 | · | · | -2 | ·
CN(C)CCNc1nc2c(c(=O)[nH]c(=O)n2C)n1CC(O)COc1ccc(Cl)cc1 (stereo not drawn) | · | -6% | 1 | -11 | -4
CCCC(C)C(=O)Nc1ccncc1 (stereo not drawn) | -0.9 | -1% | 5 | 0 | 3
CCc1cc2c(=O)[nH]c(N3CCOCC3)nc2s1 | -2.3 | 1% | -40 | -7 | 1
C=CCn1c(O)c(C(C)=NCCCN(C)C)c(=O)[nH]c1=O | -7.6 | 2% | · | 0 | ·
CCCCNS(=O)(=O)c1ccc2nc(-c3cccs3)cc(C(=O)NCC(OC)OC)c2c1 | -9.4 | 4% | -19 | 0 | 4
Cc1cc(Br)ccc1OCCCCNCCO | -2.7 | -9% | -4 | -19 | -27
COc1ccc(-c2cc(C(F)(F)F)n3nc(C(=O)NCCCN4CCOCC4)cc3n2)cc1 | -63 | -5% | · | -1 | 9
COc1ccc(C(CNC(=O)C(C)Oc2ccc(Br)cc2)N2CCOCC2)cc1 (stereo not drawn) | -1.5 | · | · | -10 | ·
O=C(Nc1nccc(-c2cccs2)n1)c1ccccc1Cl | -0.8 | 32% | -8 | 19 | -1
CCC(C)N(C(=O)Cn1nnc(-c2ccc(Cl)cc2)n1)C1CCS(=O)(=O)C1 (stereo not drawn) | -0.7 | · | · | -9 | ·
COc1ccc(Cl)c(NC(=O)Nc2c(C)n(-c3ccccc3)c(=O)n2C)c1 | -1.8 | 3% | -38 | -12 | 8
CSC(=S)N(C)C1CCS(=O)(=O)C1 (stereo not drawn) | -0.2 | -5% | -43 | -6 | -1
CC(C)(CCl)C(=O)Nc1ccc(C(F)(F)F)cc1 | -4.1 | -2% | · | -4 | -6
C=CCc1ccc(OCCCNC2CCCC2)c(OC)c1 | -0.1 | · | · | -2 | ·
Continuation.
SMILES | RecA splice inh | Mtb H37Rv | YopH PTP inh | Mtb betalactam | Arbovirus inh | others
Cc1ccc2c(cnn2C(=O)CCC(=O)NCc2cccc(Cl)c2)c1 | 1.5 | · | · | -3 | ·
Cc1ccc(S(=O)(=O)NC(CC(C)C)C(=O)N2CCC(C)CC2)cc1 (stereo not drawn) | 0.7 | 3% | · | -10 | -5
CCOC(=O)N1CCN(C(=O)c2ccc(NS(=O)(=O)c3ccc(C)cc3)cc2)CC1 | 1.2 | · | · | 7 | ·
Nc1cc(-c2ccc(Br)cc2)nn1S(=O)(=O)c1cccc2nsnc12 | -0.1 | · | -28 | 4 | 1
Cc1ccccc1C(=O)NC(C)C(c1cccs1)N1CCOCC1 (stereo not drawn) | -1.0 | -4% | -2 | -8 | 8
COc1cccc(CNC23CC4CC(CC(C4)C2)C3)c1OCc1ccccc1 | -0.6 | 14% | · | 4 | -20
